# Compound activity from PubChem.
# MT1-MMP reporter: inhibitors of MT1-MMP promoter transcription, cell-based, luciferase reporter, luminescence (AID 618); MT1-MMP promoter luciferase reporter cells, luminescence; calls from a first round at 10 µM; hits with a dose series show EC50 in µM; 0.62% of 87,000 active;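 active = over half of the reporter light lost at 10 µM or EC50 under 50 µM; inactive = the rest and hits that failed the dose series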;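 also: actives suppress MT1-MMP promoter-driven transcription so potencies describe inhibitors; HT1080 fibrosarcoma cells; overnight exposure; toxic or luciferase-blocking compounds were not removed from the actives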
# Hsc70 ATP site: Hsc70 inhibitors, probe displacement, primary screen, biochemical, fluorescence polarization (AID 568). displacement, % at 20 µM; hits with a dose series show IC50 in µM. Hsc70 fluorescence polarization, probe displacement; higher % means a stronger effect; strong numbers were not always called active. 83,000 tested, under 10 active;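 active = displacement above 50% without optical interference and an IC50 on retest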;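 also: ATPase domain with a fluorescein-tagged ATP probe; 0% = vehicle and 100% = excess ADP; read after one hour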
# WNV NS2B-NS3 inh: blocks West Nile virus NS2B-NS3 protease activity; P06935; WNV NS2B-NS3 protease, fluorogenic substrate Ex360/Em465; stronger effect = lower value; z-score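 (tested at a level between 10 and 100 µM)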; 0.18% of 65,000 active;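 active = z-score at -3 or under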;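 also: score is relative to mean and spread of the compound wells of a plate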
# Target sequence (P06935 1371-1501 limits assumed): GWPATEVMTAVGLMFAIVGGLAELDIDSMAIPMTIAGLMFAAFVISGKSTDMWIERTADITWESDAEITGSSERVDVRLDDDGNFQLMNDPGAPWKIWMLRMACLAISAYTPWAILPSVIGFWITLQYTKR
# Target sequence (P06935 1502-1679 limits assumed): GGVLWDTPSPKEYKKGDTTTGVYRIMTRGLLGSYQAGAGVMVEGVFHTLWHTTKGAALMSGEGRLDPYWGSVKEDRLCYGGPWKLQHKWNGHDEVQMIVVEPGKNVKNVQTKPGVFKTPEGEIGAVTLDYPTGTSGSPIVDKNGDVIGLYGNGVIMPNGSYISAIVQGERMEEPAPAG
# An asterisk follows results filed as active; i = inactive; · = not tested or not shown.
Compound | MT1-MMP reporter | Hsc70 ATP site | WNV NS2B-NS3 inh
COc1ccc(CC(=O)Nc2cccc(-c3nnc(-c4ccc(C)cc4)o3)c2)cc1OC | i | -5.7% | 0.32
Cc1cc(NC(=O)c2cc(CC(C)C)on2)n(-c2ccccc2)n1 | i | 3.0% | 1.3
CCOC(=O)c1c(C)[nH]c(C(=O)CN2CCOCC2)c1C | i | -4.2% | 0.49
FC(F)(F)C(Oc1nc(NC2CCCCC2)nc(N2CCOCC2)n1)C(F)(F)F | i | 7.8% | 0.08
O=C1C2C3C=CC(C3)C2C(=O)N1Cc1ccccc1 (stereo unspecified) | i | 1.9% | 2.1
CCOC(=O)c1[nH]c2ccc(C)cc2c1N=C(C)N(C)C | i | 5.1% | -0.62
C=CCSc1nc(N)c(C#N)c(-c2ccc(C)cc2)c1C#N | i | 2.8% | 1.4
O=C(CN(c1ccccc1)S(=O)(=O)c1ccc(F)cc1)N1CCCCCC1 | i | 7.0% | 0.54
Cn1c(Oc2ccccc2NCc2cc(Br)ccc2O)cc(=O)n(C)c1=O | i | -13% | -0.94
O=C(Nc1cccc2c1CCCC2)c1ccco1 | i | 19% | -0.69
Cc1cc(C)c(S(=O)(=O)N2CCN=C2c2ccccc2)cc1C | i | -5.7% | ·
Cc1ccc(C(=O)Nc2ccccc2C(=O)NC(CC(=O)O)C(=O)O)cc1 (stereo unspecified) | i | 0.2% | -1
COc1ccc(S(=O)(=O)N2CCOCC2)cc1C(=O)Nc1nc2ccccc2s1 | i | -1.1% | -0.35
Cc1n[nH]c(C)c1S(=O)(=O)N(CC(=O)Nc1ccc2c(c1)OCCO2)c1ccc(C(C)C)cc1 | i | 1.8% | -0.91
Cc1ccccc1NC(=O)N1CCCC1C(=O)NCc1cccs1 (stereo unspecified) | i | -0.5% | ·
CN1CCN(C(=O)c2ccc(N(Cc3ccccc3Cl)S(C)(=O)=O)cc2)CC1 | i | 1.8% | 0.8
COCC(C)NCc1ccccc1C (stereo unspecified) | i | -1.1% | -0.27
CC12CCC(C(=O)Nc3cccc(NC(=O)C45CCC(C)(C(=O)O4)C5(C)C)n3)(OC1=O)C2(C)C | i | -8.4% | 0.72
COc1ccc(C2CCCN2C(=O)Nc2ccc(F)cc2)cc1OC (stereo unspecified) | i | 4.8% | -0.18
CN(C)c1ccc(CNC2CC(C)(C)NC(C)(C)C2)cc1 | i | 6.0% | -0.08
CCCCC(c1nnnn1C1CCCC1)N1CCN(C2CCCCC2)CC1 (stereo unspecified) | i | 2.7% | -0.06
O=C(NCc1ccco1)c1cc(-c2ccncc2)nc2ccccc12 | i | 2.0% | 1.2
Cc1cccc(N=C2NC(=O)CS2)c1C | i | -3.8% | 0.55
Cc1cccnc1NC(=O)CSc1nnc(Cc2ccccc2)o1 | i | -0.6% | ·
O=C(NC1CCCCC1)C(c1ccccc1)N(Cc1ccc2c(c1)OCO2)C(=O)c1cnsn1 (stereo unspecified) | i | -0.2% | ·
CCC(C(=O)N1CCN(c2cccc(Cl)c2)CC1)c1ccccc1 (stereo unspecified) | i | 0.6% | -0.47
CCC(CCC(=O)Nc1cccc(C(=O)O)c1)C(=O)O (stereo unspecified) | i | 4.1% | 0.39
CCn1c(C)nc2c1C(=O)c1ccccc1C2=O | i | 2.6% | ·
CC1NC2(C(=O)N(Cc3ccccc3)c3ccccc32)C2C(=O)N(c3ccccc3)C(=O)C12 (stereo unspecified) | i | 2.2% | -1.9
Cc1ccc(OCC(=O)NC2CCCC2)c(C)c1 | i | 2.7% | ·
CCCN(CCC)S(=O)(=O)c1ccc(C(=O)Nc2nnc(-c3cc(OC)cc(OC)c3)o2)cc1 | i | -12% | 2.6
Cc1ccc([C@@H]2C3COCC=C3C(C#N)=C(N)C2(C#N)C#N)o1 (stereo partly specified) | i | 9.0% | 0.86
Cc1ccc(N2C(=O)c3ccc(N)cc3C2=O)cc1C | i | -2.7% | 0.15
Cc1cc(NC(=O)c2cc(-c3ccccn3)nc3ccccc23)no1 | i | -7.1% | -1.3
CCc1cc2c(=O)c(Oc3ccccc3F)c(C)oc2c(CN(C)C)c1O | i | 3.5% | 3
Cc1occc1C(=O)Nc1nnc(C(F)(F)F)s1 | i | 9.9% | 0.1
CCn1cc(SCC(=O)Nc2cc(C)on2)c2ccccc21 | i | 2.6% | -0.04
Nc1nc(CN2CCCCCC2)nc(Nc2ccccc2)n1 | i | 3.5% | ·
Cn1c(=N)n(CC(=O)O)c2ccccc21 | i | 0.2% | -0.8
CC1CCCN(CC(O)CN)C1 (stereo unspecified) | i | 4.4% | ·
Cc1ccccc1OCC(=O)OC1CCN(C)CC1 | i | 0.5% | ·
O=C(CSc1nnc(-c2ccccn2)n1-c1ccc(Cl)cc1)Nc1ccc2c(c1)OCO2 | i | 0.7% | ·
COC(=O)c1ccc(C2C(C#N)=C(N)Oc3cc(C)n(C)c(=O)c32)cc1 (stereo unspecified) | i | -5.1% | -0.51
COc1ccccc1N1C(=O)CCC1(C#N)c1ccccc1 (stereo unspecified) | i | 1.2% | 0.28
CC1(C)CC(C(CC(=O)O)c2ccccc2)CCO1 (stereo unspecified) | i | 0.6% | -1.4

# Other records follow.
# Results follow in this order: MT1-MMP reporter, Hsc70 ATP site, WNV NS2B-NS3 inh
Cn1c(=O)c(C(=O)CSc2nncs2)c(N)n(Cc2ccccc2)c1=O
 : i, 3.8%, 0.06
COC(=O)C1=C(N)N(c2ccccc2C(F)(F)F)C2=C(C(=O)CCC2)C1c1ccc2c(c1)OCO2 (stereo unspecified)
 : i, -3.1%, ·
CC1CCC(NC(=O)Cn2c(=O)[nH]c3ccsc3c2=O)CC1 (stereo unspecified)
 : i, -3.5%, 0.32
O=C(N1CCOCC1)N1CCN(c2nc(-c3ccc(F)cc3)cs2)CC1
 : i, -3.7%, -1.2
CC(C)CCn1c(Sc2nc3ccccc3s2)nc2c1c(=O)[nH]c(=O)n2C
 : i, 3.3%, -1
CCN(CC)C(=O)CSc1nc2ccccc2c(=O)n1OC(C)C
 : i, -5.5%, ·
Cc1c(C(=O)Nc2ccc3c(c2)OCCO3)sc2nc(-c3ccccc3)cn12
 : i, -1.2%, -0.37
CCOC(=O)c1c(CN2CCN(CCO)CC2)n(C)c2cc(Br)c(OC)cc12
 : i, 5.7%, 0.09
CCOC(=O)N1CCC(n2c(=S)[nH]c3cc(OCC)c(OCC)cc3c2=O)CC1
 : i, -10%, -0.96
Nc1ncnc2c1ncn2[C@H]1C[C@H](O)[C@@H](COP(=O)(O)O)O1
 : i, -1.9%, ·

# Just WNV NS2B-NS3 inh and MT1-MMP reporter, for 4 of the compounds above:
structure | WNV NS2B-NS3 inh | MT1-MMP reporter
CCOC(=O)c1c(C)[nH]c(C(=O)CN2CCOCC2)c1C | 0.49 | i
FC(F)(F)C(Oc1nc(NC2CCCCC2)nc(N2CCOCC2)n1)C(F)(F)F | 0.08 | i
O=C1C2C3C=CC(C3)C2C(=O)N1Cc1ccccc1 (stereo unspecified) | 2.1 | i
CCOC(=O)c1[nH]c2ccc(C)cc2c1N=C(C)N(C)C | -0.62 | i

# Next part
# Results follow in this order: MT1-MMP reporter, Hsc70 ATP site, WNV NS2B-NS3 inh
Cc1ccccc1OCc1nc2ccc(S(=O)(=O)N3CCOCC3)cc2[nH]1
 : i, 0.7%, ·
CCc1ccccc1NC(=O)CSc1nnc(Cn2nnc3ccccc32)n1C
 : i, 6.9%, ·
Cc1cc(N2CCN(C3CCCC3)CC2)n2ncc(-c3ccccc3)c2n1
 : i, 0.9%, 0.06
O=C(NCc1ccco1)Nc1ccc(Br)cc1Cl
 : i, 3.9%, 0.95
O=S1(=O)C=CC(Nc2cccc(Cl)c2)C1 (stereo unspecified)
 : i, 0.8%, 0.21
CC(c1cccs1)N(C(=O)Nc1ccccc1)C1CCCCC1 (stereo unspecified)
 : i, -0.2%, ·
Cn1c(OCc2cccnc2)nc2c1c(=O)n(Cc1ccc(Br)cc1)c(=O)n2C
 : i, 0.9%, 0.65
CCn1cc(C(C)NC(=O)COc2ccc(Cl)cc2C)c(C)n1 (stereo unspecified)
 : i, -2.0%, -0.75
O=C(Cn1cc2c(n1)CCCC2)NCCCN1CCN(C2CCCCC2)CC1
 : i, 1.0%, -0.53
CC1(C)Cc2c(sc(NC(=O)c3ccco3)c2C(=O)O)CO1
 : i, -3.1%, ·
CN(C)CCCNc1oc(-c2ccc(Cl)cc2)nc1C#N
 : i, 0.7%, 1.8
COc1ccc(NC(=O)c2ccccc2NC(=O)c2ccco2)c(OC)c1
 : i, 1.8%, -0.29
O=C(O)C1CC=CCC1C(=O)NC12CC3CC(CC(C3)C1)C2 (stereo unspecified)
 : i, -2.7%, -1.3
CN1C(=O)c2cccc(N(C)C)c2C1=O
 : i, 2.1%, -1.3
COc1cc(S(=O)(=O)Nc2c(C)cc(C)cc2C)ccc1Cl
 : i, 7.9%, ·
O=C(CSc1nc2ccccc2o1)c1ccccc1
 : i, -3.4%, ·
Cc1nnc(-n2ncc(C#N)c2N)c2nn(-c3cccc(Cl)c3)c(C)c12
 : i, -12%, ·
CCOC(=O)c1nnn(-c2nonc2N)c1CS(=O)(=O)c1ccccc1
 : i, 0.3%, ·
CCCN1C(=O)N(C)C(N(O)C(=O)NC)C1(C)C (stereo unspecified)
 : i, -1.2%, ·
OCc1nnn(-c2cccc(C(F)(F)F)c2)c1CO
 : i, -0.7%, -1
CC(=O)c1c(C)nc(-c2ccc(Cl)cc2)nc1N=CN(C)C
 : i, 0.8%, 0.17
CC1(C)CC2(CCCN3C(=O)CSC32)CCS1 (stereo unspecified)
 : i, -12%, -0.2
Cc1cccc(N2C(=O)N(c3ccccc3C)C3CS(=O)(=O)CC32)c1 (stereo unspecified)
 : i, 0.5%, 0.01
Cc1ccccc1NC(=O)CC1SC(=O)N(c2ccccc2)C1=O (stereo unspecified)
 : i, 2.3%, ·
C=CCn1c(NC(=O)c2ccccc2)c(C#N)c2nc3ccccc3nc21
 : i, -65%, -0.8
O=C(c1ccc(COc2ccc(Cl)cc2)o1)N1CCN(Cc2ccc3c(c2)OCO3)CC1
 : i, -1.0%, 0.18
Cc1cc(C)n(-c2cccc3cccnc23)n1
 : i, -1.3%, 0.17
O=C(O)c1ccccc1-c1nc2ccccc2c(=O)[nH]1
 : i, 3.2%, -0.26
CCOC(=O)C1C(=O)OC(C)(C)C1C(C)C(=O)c1ccccc1 (stereo unspecified)
 : i, 1.6%, ·
CC(C)(C)NC(=O)Cn1c(SCC(N)=O)nc2ccccc21
 : i, 1.7%, ·
COc1ccc(-c2nnc(SCC(=O)c3cccs3)o2)cc1
 : i, -1.0%, 0.05
CC1CN(C(=O)C2CCCN2S(=O)(=O)c2ccc(Cl)cc2)CC(C)O1 (stereo unspecified)
 : i, -3.9%, 0.12
Cc1ccc(S(=O)(=O)n2nc(-c3cccnc3)nc2N)cc1
 : i, -1.0%, 0.0098
O=S(=O)(Nc1cccnc1)c1ccc2c(c1)OCCO2
 : i, 1.1%, -0.49
Cn1nnnc1SCCNC/C=C/c1ccccc1
 : i, 5.8%, -0.78
Cc1ccc(CSc2sc(C(=O)c3ccccc3)c(N)c2C#N)cc1
 : i, -1.3%, ·
CCOC(=O)c1[nH]c(=O)[nH]c1CSc1ccccn1
 : i, -4.0%, -0.45
CCc1cccc(NC(=O)Cn2ncn3c(cc4ccccc43)c2=O)c1
 : i, -6.3%, 0.26
CCN1CCN(S(=O)(=O)c2ccc(Cl)c(C(=O)Nc3nnc(CC(C)C)s3)c2)CC1
 : i, -1.3%, ·
Cn1c(=O)[nH]c(=O)c2c1nc(CN1CCOCC1)n2CCc1ccccc1
 : i, -8.5%, -0.75
COC(=O)c1ccccc1NC(=O)C1CCN(S(=O)(=O)c2cc(OC)ccc2OC)CC1
 : i, -4.1%, -0.17
Cc1cc(C)c(C)c(S(=O)(=O)N2CCN(Cc3nc4ccccc4[nH]3)CC2)c1C
 : i, -2.2%, ·
c1coc(-c2nnc(-c3ccc4c(c3)OCO4)o2)c1
 : i, -8.1%, -0.3
Cc1sc(NC(=O)CSc2nnc(CCNC(=O)c3cccs3)n2C)nc1-c1ccccc1
 : i, 5.5%, ·
Cc1ccc(NC(=O)CC2Oc3ccc(C)cc3NC2=O)cc1 (stereo unspecified)
 : i, 1.0%, 0.9
c1ccc(-c2noc(CN3CCN(C(c4ccccc4)c4ccccc4)CC3)n2)cc1
 : i, 1.8%, -0.13
O=C(c1ccc2c(c1)N(Cc1ccc(F)cc1)C(=O)CS2)N1CCOCC1
 : i, -4.9%, 1.8
COc1cc(-c2nnc(COc3ccc4ccccc4c3)o2)cc(OC)c1OC
 : i, -2.1%, -1.1
OCCNc1nc2ccccc2[nH]1
 : i, -0.2%, ·
CCOC(=O)NCCc1ccc(OC)cc1
 : i, 1.0%, -0.39

# Entries of single compounds, looked up by structure:
# Profile of `OCCNc1nc2ccccc2[nH]1` → MT1-MMP reporter: i; Hsc70 ATP site: -0.2%; WNV NS2B-NS3 inh: ·
# Profile of `c1ccc(-c2noc(CN3CCN(C(c4ccccc4)c4ccccc4)CC3)n2)cc1` → MT1-MMP reporter: i; Hsc70 ATP site: 1.8%; WNV NS2B-NS3 inh: -0.13

# (continued)
# Results follow in this order: MT1-MMP reporter, Hsc70 ATP site, WNV NS2B-NS3 inh
CCOC(=O)c1oc2ccccc2c1NC(=O)Cc1cccs1
 : i, -2.3%, 0.63
c1ccc2c(c1)OCC(c1csc3ncnc(N4CCOCC4)c13)O2 (stereo unspecified)
 : i, -0.6%, -0.39
CC(C)N(Cc1nc2ccccc2[nH]1)C(C)C
 : i, -1.8%, -0.42
O=C(NCc1cccnc1)C1CCN(S(=O)(=O)N2CCOCC2)CC1
 : i, -2.5%, 1.3

# An excerpt; count on the stated rates, not on these rows.
